2A firefly – FMDV 2A StopGo reporter, firefly signal; Potency, µM (series often up to 57.5 µM), for inactives: at the top dose signal change, negative = less light; AID 1745856; 0.23% of 120,000 active; HEK cells with a luciferase reporter of 2A StopGo recoding; active = well fitted falling curve with a large enough effect; inconclusive = small, poorly fitted or top-dose-only effect; inactive = no such curve, though single readings can be large or run the other way; further: nearly all actives have a fitted effect of over 60% in size; overnight with compound
2A Renilla – FMDV 2A StopGo reporter, Renilla signal. HEK cells with a luciferase reporter of 2A StopGo recoding. Potency, µM (doses to about 57.5 µM), without a hit: at the top dose signal change, negative = less light. 0.32% of 120,000 active. AID 1745857; active means well fitted falling curve with a large enough effect; inconclusive means small, poorly fitted or top-dose-only effect; inactive means no such curve, though single readings can be large or run the other way; further: nearly all actives have a fitted effect of over 55% in size; overnight with compound
The depositor's hits bear a star; ? = inconclusive; [ ] = another dose, or the depositor's remark. On the % scale 0 is the no-effect control and ±100 the full control effect; potency means the concentration at half of the fitted maximal effect.

Order of values: 2A firefly	2A Renilla
> CC(=O)Nc1cccc(Oc2ccc3nnc(-c4ccc(Br)cc4)n3n2)c1
    24.7%	21.1%
> CCN(CC)c1ccc(/C=N/NS(=O)(=O)c2ccccc2)cc1
    21.7%	392.8%[activator]
> C#CCNC(=O)c1ccccc1NCC(=O)Nc1ccccc1OC(F)F
    9.9%	4.9%
> CCc1ccc2c(c1)-c1ccccc1S(=O)(=O)N2CC(=O)Nc1ccccc1OC
    2.4%	22.5%
> COc1ccc2c(c1)Cc1sc(NC(=O)c3cccc(Cl)c3)nc1-2
    40.9%[activator]	39.2%[activator]
> CCn1c(=O)n(-c2ccc(C)c(F)c2)c(=O)c2sc3ccccc3c21
    ?	-12.1%
> COc1ccc(NC(=O)CSc2nc(-c3ccccc3)[nH]c2-c2ccccc2)cc1OC
    -1.4%	8.5%
> CC(C)CC(=O)N1CC(=O)Nc2ccc(F)cc2C1c1ccccc1 (stereo not given)
    45.5%[activator]	47.6%[activator]
> CCC(C(=O)Nc1cc(OC)cc(OC)c1)n1c(=O)[nH]c2ccccc2c1=O (stereo not given)
    -10.1%	-4.8%
> Cc1cccc(N(C)C(=O)C2CCN(S(=O)(=O)c3cccc4nonc34)CC2)c1
    -19.2%	345.1%[activator]
> Cc1ccccc1CN1CCN(CC(=O)NCc2ccccc2Cl)C1=O
    14.2%	0.0%
> CCOC(=O)c1[nH]c(C)c(CCC(=O)Nc2cc(C)ccc2OC)c1C
    -5.7%	-5.2%
> CCc1cccc(NC(=O)Cn2c(=O)n(CC3CCC(C(=O)NCCc4ccccc4)CC3)c(=O)c3ccccc32)c1 (stereo not given)
    43.4%[activator]	13.6%
> Cc1cc(C)cc(S(=O)(=O)N2CCC(C(=O)NCCc3csc(C)n3)CC2)c1
    -6.1%	0.1%
> COc1ccc(S(=O)(=O)c2nnn(-c3ccccc3F)c2C)cc1
    -6.6%	41.9%[activator]
> CN(C)Cc1nc2c(c(=O)[nH]1)C(C)(C)Cc1ccccc1-2
    8.1%	1.9%
> CC(CNC(=O)c1ccc(CSc2nc3ccncc3n2Cc2ccc(F)cc2)cc1)c1ccccc1 (stereo not given)
    -9.7%	?
> N#Cc1ccsc1NC(=O)CSc1ccc2c(c1)OCCCO2
    225.1%[activator]	38.4%
> O=C(Nc1cccc(Cl)c1)C1CC(c2ccccc2)=NO1 (stereo not given)
    0.0%	107.1%[activator]
> Cc1ccc(Cn2c(C(=O)O)c(CNC3CCCC3)c3ccc(C)cc32)cc1
    -22.6%	-3.5%
> O=C(O)Cn1cc(C(C(=O)O)N2CCN(Cc3ccccc3)CC2)c2ccccc21 (stereo not given)
    -3.2%	-10.9%
> NC(=O)c1cn[nH]c1NCc1cccnc1
    -2.1%	5.2%
> Cc1ccc(CCNC(=O)c2sc3ncccc3c2-n2cccc2)cc1
    6.2%	5.8%
> O=C(NCc1ccc(F)cc1)C(=O)NCC(c1cccs1)S(=O)(=O)c1cccs1 (stereo not given)
    ?	46.5%[activator]
> O=C(CCSc1nc(-c2ccc3c(c2)OCO3)cc(C(F)(F)F)n1)N1CCCC1
    1.3%	5.0%
> Cc1ccc(S(=O)(=O)N/N=C/c2sccc2C)cc1[N+](=O)[O-]
    142.3%[activator]	5.1%
> COc1ccc(N(Cc2cc3ccccc3[nH]c2=O)S(C)(=O)=O)cc1
    13.4%	11.9%
> COc1ccc(-c2cc(C(=O)Nc3c(C)nn(Cc4ccc(C)cc4)c3C)no2)cc1OC
    -11.8%	-8.9%
> COc1ccc(Cn2c(CCC(=O)Nc3ccc(OC)c(Cl)c3)nc3cccnc32)cc1
    0.6%	6.7%
> COC(=O)c1ccc(OCC2c3cc(OC)c(OC)cc3CCN2C(=O)Cc2ccc(OC)c(OC)c2)cc1 (stereo not given)
    15.0%	18.5%
> CN(c1ccccc1)c1ccc(C(=N)N)cc1
    -10.4%	-6.6%
> CCn1c(CN2CCC(C)CC2)nc2cc(NC(=O)COc3ccc(C)cc3)ccc21
    14.6%	8.0%
> O=C(CN1CCN(Cc2ccccc2)CC1)Nc1ccc(Cl)cc1C(=O)c1ccccc1
    2.3%	11.0%
> CCNC(=O)CNC(=O)Cn1c(-c2ccccc2)cc2ccccc21
    6.7%	10.5%
> CCN1C(=O)c2ccccc2Sc2ccc(NC(=O)Nc3ccccc3OC)cc21
    -20.8%	-26.0%
> Cc1cc(C)c2c(=O)[nH]c(SCC(=O)c3ccccc3)nc2n1
    11.4%	4.0%
> Cc1ccc(S(=O)(=O)CCc2ccccc2Cl)cc1C
    62.4%[activator]	194.5%[activator]
> COc1ccc(Br)cc1/C=C1\Oc2cc(OS(C)(=O)=O)ccc2C1=O
    -3.7%	14.0%
> O=S(=O)(c1cccc2nsnc12)n1cccn1
    5.4%	6.7%
> Cc1ccccc1-c1nnn(Cc2ncc(-c3ccccc3)o2)n1
    11.9%	5.0%
> CCc1cccc(NC(=O)Cn2nc(-c3cc(C)ccc3C)ccc2=O)c1
    -20.1%	-7.9%
> Cc1cccc(CCNC(=O)c2ccc3c(c2)nc2n3CCOC2)c1
    77.5%[activator]	-3.9%
> Cn1cc(C(=O)NCCc2ccccc2)c(=O)c2cc(S(=O)(=O)N3CCCCCC3)ccc21
    -6.9%	-16.3%
> CC(C)NC(=O)CN1CCCN(c2ncccc2C(F)(F)F)CC1
    -11.7%	-12.2%
> CN(C)c1ccc(-c2ccc3ccccc3n2)cc1
    -20.1%	1.1%
> O=C(CCn1ncc(=O)c2ccccc21)N1CCCC1c1ccc2c(c1)OCCCO2 (stereo not given)
    12.6%	2.9%
> O=C(c1ccccn1)N(Cc1cc2ccccc2[nH]c1=O)C1CCCCC1
    8.4%	5.7%
> Cc1ccc(NC(=O)Cn2cc(S(=O)(=O)NC(C)C)c(S(=O)(=O)NC(C)C)c2)cc1Cl
    -21.1%	-3.3%
> Cc1cccc(-c2cc(Nc3ccc(C(=O)N(C)Cc4ccccc4)cc3)ncn2)c1
    -4.4%	-14.8%
> Fc1ccc(-c2csc(NCc3ccco3)n2)cc1
    220.6%[activator]	0.0%
> Cc1cc(C(=O)Nc2ccc(C)c(I)c2)c(C)o1
    181.8%[activator]	-3.6%
> CCc1ccccc1N(C)C(=O)Cn1cnc2sc(C)c(S(=O)(=O)N3CCC(C)CC3)c2c1=O
    -7.2%	-8.9%
> C/C(=N\NC(=O)c1ccccc1C)C(C)C
    65.7%[activator]	0.0%
> Cc1ccc(F)cc1NC(=O)c1ccc(Cn2nc(N3CCN(c4ccccc4)CC3)ccc2=O)o1
    ?	?
> Cn1c(=O)[nH]c(=O)c2c1nc(N1CCN(Cc3ccccc3)CC1)n2CCc1ccccc1
    -7.3%	-8.5%
> COc1ccc(OCCn2cc(C(=O)C3CCCCC3)c3ccccc32)cc1
    -8.0%	-6.1%
> CCc1ccccc1NC(=O)c1ccccc1SCc1cccs1
    -1.7%	0.0%
> COC(=O)CCNC(=O)c1ccc(C(C)(C)C)cc1
    124.0%[activator]	-5.3%[1.06 µM]
> CCOC(=O)c1ccc(NC(=O)c2cccc3c(=O)c4c([nH]c23)CCCC4)cc1
    -2.7%	-4.7%
> CCCC(=O)OC1=CN(Cc2ccccc2)S(=O)(=O)c2ccccc21
    0.5%	-5.0%

Remaining list, next part.
SMILES	2A firefly	2A Renilla
O=C(Nc1nc(C23CC4CC(CC(C4)C2)C3)cs1)C1CCC1	36.2%[activator]	1.7%
Cc1cc(C)c2c(CC(=O)NCc3ccccc3)coc2c1	50.7%[activator]	35.3%[activator]
CC(C)CC(CC(C)C)=NNC(=O)COc1ccc(C#N)cc1	-8.2%	-20.6%
Cc1ccc(CNC(=O)c2sc3nc(-c4ccc(F)cc4)ccc3c2N)cc1	6.7%	-7.9%
CCOc1ccc(N2C(=O)N(Cc3ccc(C)cc3C)c3ccccc3S2(=O)=O)cc1	-4.5%	35.1%[activator]
Cn1cnc(S(=O)(=O)N2CCCC(C(=O)NCc3ccc(Cl)cc3)C2)c1 (stereo not given)	-9.3%	98.3%[activator]
Cc1cc(=O)[nH]c(SCC(=O)N2CCN(c3ccccc3)CC2)n1	19.4%	-6.3%
Cc1ccsc1C(=O)Nc1ccccc1SCc1ccccc1	62.8%[activator]	7.3%
COc1ccc2c(C)nc(Nc3nc(C)cc(=O)[nH]3)nc2c1	28.3%	23.6%
CCCn1cc(S(=O)(=O)c2ccccc2)c(=O)c2cc(F)c(N3CCCCCC3)cc21	-14.2%	9.9%
CNc1c(NC(=O)Cc2cccs2)c(=O)oc2ccccc12	-6.3%	-4.2%
COc1ccc(NC(=O)CC2C(=O)N(c3cccc(OC)c3)C(=O)N2Cc2ccc3c(c2)OCO3)cc1 (stereo not given)	-20.2%	202.7%[activator]
O=C(CNc1nc(Cl)nc2nc[nH]c12)NCCc1c[nH]c2ccc(F)cc12	4.5%	5.6%
COc1cccc(-c2nn3c(=O)cc(CN4CCN(C(=O)COc5ccccc5C)CC4)nc3s2)c1	-7.0%	9.1%
O=C(CC12CC3CC(CC(C3)C1)C2)Nc1ccc2oc(-c3cccnc3)nc2c1	-2.2%	-6.9%
CCOc1ccc(N(C)S(=O)(=O)c2cc(-c3cc(C)no3)ccc2CC)cc1	?	?
O=C(NCC1(N2CCOCC2)CCCCC1)c1nn(-c2ccccc2)c(=O)c2ccccc12	7.2%	0.8%
COc1cc(/C=C/C(=O)c2cc3ccccc3o2)c2c(c1)CC(C)O2 (stereo not given)	0.0%	0.0%
COc1ccccc1CNc1nc(-c2ccco2)nn1S(=O)(=O)c1ccc(Cl)cc1	51.1%[activator]	-15.5%
Cc1nn(-c2ccc(N3CCCC3)nn2)c(C)c1CCC(=O)N1CCN(c2ccccc2F)CC1	-11.8%	-4.8%
Cc1ccc(S(=O)(=O)N(CC(=O)NCc2ccncc2)c2ccc(Cl)c(C(F)(F)F)c2)cc1	-17.5%	99.3%[activator]
Cc1ccc(/C=C/c2onc(C)c2S(=O)(=O)N2CCC(C(=O)NCc3ccco3)CC2)cc1	-1.8%	-10.1%
Cc1cccc(OC(=O)c2ccccc2Cl)c1C	16.8%	-4.7%
COc1ccc(C2=C(O)C(=O)N(Cc3cccnc3)C2c2ccccc2F)cc1 (stereo not given)	9.1%	8.4%

Some of the entries so far, field by field.
> O=C(CC12CC3CC(CC(C3)C1)C2)Nc1ccc2oc(-c3cccnc3)nc2c1
  2A firefly: -2.2%; 2A Renilla: -6.9%

> COc1cccc(-c2nn3c(=O)cc(CN4CCN(C(=O)COc5ccccc5C)CC4)nc3s2)c1
  2A firefly: -7.0%; 2A Renilla: 9.1%

Next part:
SMILES	2A firefly	2A Renilla
CC(C)CC(NC(=O)COc1ccccc1)C(=O)N(C)C (stereo not given)	-0.8%	2.6%
CCCc1ccc(/C(C)=N/NC(=O)C2CC2c2ccccc2)cc1 (stereo not given)	1.0%	28.7%
CCc1nn(CC(=O)NC(C)C)c(=O)c2cc3cc(F)ccc3n12	-10.6%	-8.1%
COc1ccccc1CNC(=O)Cn1c(=O)ccc2cc(S(=O)(=O)N3CCC(C)CC3)ccc21	9.9%	55.7%[activator]
CC(C)(C)CC(=O)C(C#N)C(=O)NCc1ccccc1 (stereo not given)	22.9%	13.1%
COc1ccc(Nc2cc(C)nc(Nc3ccc(NC(=O)CC(C)(C)C)cc3)n2)cc1	?	22.4µM*
Cc1ccc(NC(=O)N2CC3CCCN3c3ccccc32)c(C)c1 (stereo not given)	24.9%	-13.5%
COc1ccccc1OCC(=O)NC1CCCCC1	106.3%[activator]	21.4%
Cc1ccc(N2CCN(C(=O)c3cn(C)c4ccc(S(=O)(=O)N(C)C)cc4c3=O)CC2C)cc1 (stereo not given)	-0.9%	34.9%[activator]
COC(=O)c1ccccc1NC(=O)c1cc(=O)c2ccc(C)c(C)c2o1	-15.0%	-2.3%
COc1ccc(S(=O)(=O)Nc2ccc3c(c2)N(C(=O)c2cccnc2)CC3)c(OC)c1	10.4%	217.7%[activator]
COP(=O)(OC)OC=C(Cl)Cl	-12.1%[11.5 µM]	-12.5%
CC(=O)Nc1ccc(NC(=O)c2nn(CCC(C)C)c(=O)c3ccccc23)cc1	17.9%	30.1%[activator]
COc1ccc2cc(C(=O)NCC(C)N3CCCC3)c(C)nc2c1 (stereo not given)	22.7%	-4.5%
Cc1cc(NC(=O)C(C)Sc2nc(NC3CC3)c3ccccc3n2)no1 (stereo not given)	?	?
CCOc1ccccc1CNC(=O)C1CCN(c2nc3ccccc3nc2C(F)(F)F)CC1	-20.5%	-11.1%
Cc1ccccc1S(=O)(=O)Cc1ccc(C(=O)NC2CCCCC2)o1	-7.1%	-11.2%
CC(C)c1nnc2ccc(NCc3ccc(Cl)cc3)nn12	0.0%	14.9%
O=Cc1cccn1-c1ccc(Cl)cc1Cl	5.0%	-8.2%
COc1ccc(-c2noc(CSc3nnc(C)n3-c3ccccc3)n2)c(OC)c1	17.9%	-0.3%
O=C(CSc1ncnc2sccc12)c1ccc2c(c1)OCCCO2	-26.2%	1.6%[1.06 µM]
Cc1cccc(Cn2c(Sc3nncn3C)nc3c2c(=O)[nH]c(=O)n3C)c1	-6.0%	-3.0%
COc1ccc(NC(=O)CCc2nc3cc(Cl)ccc3n(CC(C)C)c2=O)cc1	13.3%	1.5%

Random excerpt: 6 entries already listed.
SMILES	2A firefly	2A Renilla
O=Cc1cccn1-c1ccc(Cl)cc1Cl	5.0%	-8.2%
CCn1c(=O)n(-c2ccc(C)c(F)c2)c(=O)c2sc3ccccc3c21	?	-12.1%
Cc1ccc(/C=C/c2onc(C)c2S(=O)(=O)N2CCC(C(=O)NCc3ccco3)CC2)cc1	-1.8%	-10.1%
Cc1cc(=O)[nH]c(SCC(=O)N2CCN(c3ccccc3)CC2)n1	19.4%	-6.3%
Cn1cnc(S(=O)(=O)N2CCCC(C(=O)NCc3ccc(Cl)cc3)C2)c1 (stereo not given)	-9.3%	98.3%[activator]
CC(=O)Nc1cccc(Oc2ccc3nnc(-c4ccc(Br)cc4)n3n2)c1	24.7%	21.1%

High-throughput results (PubChem)
